Screening results as filed in PubChem.
RecA intein inh: inhibitors of M. tuberculosis RecA intein splicing; cell-free RecA intein splicing, fluorescence; 290,000 compounds, 0.75% hits; inhibition, %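 (about 9 µM by stock and volumes)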; in the data active = inhibition above about 30%; inconclusive = no clear call, values can overlap the other calls;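 also: 0% = vehicle wells and 100% = reference inhibitor control wells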
Target sequence (P9WHJ3 whole entry, looked up): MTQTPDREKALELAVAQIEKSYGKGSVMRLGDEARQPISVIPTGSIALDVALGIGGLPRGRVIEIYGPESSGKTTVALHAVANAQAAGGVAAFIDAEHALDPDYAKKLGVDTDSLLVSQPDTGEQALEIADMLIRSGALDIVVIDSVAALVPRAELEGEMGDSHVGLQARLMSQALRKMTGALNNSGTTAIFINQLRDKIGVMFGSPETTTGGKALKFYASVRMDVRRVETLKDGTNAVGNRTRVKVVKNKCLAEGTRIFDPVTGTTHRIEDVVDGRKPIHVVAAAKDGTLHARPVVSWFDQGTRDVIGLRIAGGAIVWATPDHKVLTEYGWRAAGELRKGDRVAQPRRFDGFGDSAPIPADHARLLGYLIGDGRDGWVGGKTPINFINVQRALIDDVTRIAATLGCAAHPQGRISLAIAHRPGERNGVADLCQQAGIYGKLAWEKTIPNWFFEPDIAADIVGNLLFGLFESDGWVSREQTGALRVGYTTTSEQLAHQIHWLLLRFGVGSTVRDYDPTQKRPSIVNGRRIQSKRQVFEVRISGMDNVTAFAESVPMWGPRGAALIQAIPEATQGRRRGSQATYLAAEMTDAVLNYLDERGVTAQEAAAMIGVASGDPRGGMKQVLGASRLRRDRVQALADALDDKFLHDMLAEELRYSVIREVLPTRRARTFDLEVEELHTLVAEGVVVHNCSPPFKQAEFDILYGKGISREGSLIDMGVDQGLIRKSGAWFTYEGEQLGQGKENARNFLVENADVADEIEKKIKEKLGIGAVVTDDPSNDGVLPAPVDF
YopH inh: blocks Yersinia enterocolitica YopH tyrosine phosphatase | fluorescence Ex485/Em525 | inhibition, %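 (about 10 µM by stock and volumes)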 | 140,000 compounds, 0.16% hits | AID 898;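 active = inhibition of 50% or more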;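 also: controls were vehicle for no effect and minimum signal wells for full effect; inactives centre near -20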
Mtb betalactam: beta-lactam sensitization of Mtb H37Rv; M. tuberculosis H37Rv growth with meropenem, percent inhibition; hits of this screen are not shown here; inhibition, % at 25 µM; 330,000 compounds, 0.27% hits;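 active = about 74% or more and at least 40 points above the plate without the antibiotic, then above 30% in a dose series; inconclusive = first-round hits that could not be retested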;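 also: growth measured after seven days incubation then overnight dye step; 0% = bacteria only wells and 100% = bacteria with antibiotic; twin plates without the antibiotic show which effects depend on it; some results filed as inactive read as strong as hits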
Mtb H37Rv: M. tuberculosis H37Rv growth inhibitors, H37Rv strain (AID 1626); M. tuberculosis H37Rv growth inhibition; higher % means a stronger effect; one-dose inhibition, % at 10 µM; IC50 in µM for titrated hits; 220,000 compounds, 0.95% hits;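 active = confirmed in a dose series; inconclusive = inhibition above 80% but not taken into the dose series; inactive = below 80% or under 30% at every dose of the series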;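 also: bacteria incubated seven days before Alamar blue readout; 0% = bacteria only wells and 100% = bacteria with antibiotic wells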
Arbovirus inh: arbovirus infection inhibition | arbovirus infection cell-based antiviral screen | inhibition, % at 10 µM | 200,000 compounds, 0.37% hits;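 active = inhibition from about 30%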;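 also: bluetongue infection of BSR cells; cell survival read as ATP light after 72 h; 0% = infected wells without compound and 100% = uninfected wells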
Numbers without * were called inactive; ? = inconclusive; . = no result given. Not all compounds are listed; rates above refer to the full screens.

The line under a structure holds: RecA intein inh, YopH inh, Mtb betalactam, Mtb H37Rv, Arbovirus inh
1) COc1ccc(SCC(=O)c2cc(C)c(OC(=S)N(C)C)c(C)c2)cc1
    9.3, -19.0, -7.7, -8.2%, -1.2
2) CC(C(=O)NC1=NCCS1)N1C(=O)c2ccccc2C1=O (centres undefined)
    -1.9, -36.5, 3.5, 2.7%, 0.8
3) COc1ccc(C2(C)NC(=O)N(CC3CCCCC3)C2=O)cc1 (centres undefined)
    3.1, ., -3.6, ., .
4) CCCN(CCC)C(C(=O)Nc1cccc(OC)c1)c1ccccc1 (centres undefined)
    2.9, -41.9, -8.9, -3.8%, 10.0
5) O=[N+]([O-])c1ccc(Oc2ccc(-c3cnc4ccccc4n3)cc2[N+](=O)[O-])cc1
    -2.5, -14.9, 3.0, 9.1%, 0.6
6) O=C(Nc1ccccc1)C1=C[C@H](c2coc3ccccc3c2=O)C[C@H](OCCCCO)O1
    3.0, ., 6.1, -0.5%, 3.9
7) CCOc1ccccc1NC(=O)C1CC(=O)n2ncnc2N1 (centres undefined)
    -1.4, -15.2, 1.3, 2.4%, -4.5
8) COC(=O)Cn1c(=NC(=O)c2ccc(Cl)s2)sc2cc(F)ccc21
    -5.8, -8.0, 1.1, 3.1%, -5.8
9) C=CCn1c(O)c(C(CC)=NCc2ccc3c(c2)OCO3)c(=O)[nH]c1=O
    ., ., -8.0, -3.6%, .
10) O=C1c2ccccc2C2(c3ccccc3)NCCCN12 (centres undefined)
    ., ., -4.1, -10.5%, 1.6
11) CCCC(=O)Nc1ccc(-c2csc(NNC(C)=O)n2)cc1
    -3.3, ., 12.9, -9.4%, .
12) CCCCC(Sc1nc(N)c(NC(=O)c2ccc(OC)cc2)c(=O)[nH]1)C(=O)O (centres undefined)
    -2.0, ., -9.9, -2.8%, 7.1
13) CCCCn1c(N)c(N(CC(C)C)C(=O)c2ccc(N3C(=O)CCC3=O)cc2)c(=O)[nH]c1=O
    1.4, ., -2.2, ., .
14) COc1ccc(N2CC(C(=O)O)CC2=O)cc1 (centres undefined)
    -1.5, -9.2, -1.9, -4.3%, 1.4
15) COCCNC(=O)/C(C#N)=C/c1ccccc1Br
    -0.1, ., -4.0, -1.9%, -3.1
16) COc1ccc(C)cc1NC(=O)C(Sc1ccccc1)c1ccccc1 (centres undefined)
    -1.6, 14.3, 8.4, 12.1%, 23.7
17) O=C(NCC1CCCO1)C(c1ccccn1)N(Cc1ccccc1Cl)C(=O)CN1C(=O)c2ccccc2S1(=O)=O (centres undefined)
    1.0, ., -3.2, -4.6%, 9.7
18) O=C(CSc1nc(O)c(C(c2ccccc2)c2ccccc2)c(=O)[nH]1)N1CCOCC1
    -1.1, ., -1.4, -1.0%, -2.3
19) Cc1cccc(C2=N/C(=C/c3cccs3)C(=O)O2)c1
    -0.8, ., 49.7, -3.2%, -7.5
20) CCOC(=O)C(O)(c1ccc(NC(=S)NC(=O)c2ccc(Cl)cc2Cl)cc1)C(F)(F)F (centres undefined)
    4.4, 9.8, 0.2, 10.2%, -9.2
21) Cc1ccc2[nH]c(C)cc(=S)c2c1
    ., ., ., 36.2%, -3.6
22) NC(=O)c1ccc(NC(=O)CC23CC4CC(CC(Br)(C4)C2)C3)cc1
    0.2, ., -5.0, ., .
23) COc1ccc(CCN2C(=O)C3CC=C(C)CC3C2=O)cc1OC (centres undefined)
    2.9, 34.0, -21.6, -0.8%, 4.5
24) O=C(Nc1cccnc1)c1noc2c1CCCCC2
    0.5, -14.2, 2.9, ., 2.7
25) Cc1ccc(NC(=O)CSc2nnc(C3CC3)n2CC2CCCO2)cc1C (centres undefined)
    1.6, ., 5.7, ., .
26) CN1CCN(NC(=O)CC(C)(C)C)CC1
    -2.0, ., -14.8, 4.9%, 4.4
27) CCS(=O)(=O)c1c(S(=O)(=O)CC)c2ccccn2c1C(N)=O
    -6.9, ., 10.4, 3.0%, 5.7
28) Cc1cc(C(=O)NC2CC(C)(C)Cc3c2cnn3-c2ccc(F)cc2)nn1C (centres undefined)
    0.5, ., -9.7, ., .
29) COc1ccc(C(C(=O)NC2CCCCC2)N(C(=O)CCl)c2ccccc2Cl)cc1 (centres undefined)
    -1.9, -10.5, -1.4, 9.7%, -0.8
30) Cc1ccc(S(=O)(=O)N(C)CC(=O)N2CC(C)OC(C)C2)cc1 (centres undefined)
    -3.0, ., ?, ., .
31) Cc1ccccc1CN1CCC(Oc2ccc(C(=O)N3CCCC3)cc2)CC1
    1.2, ., 2.0, ., .
32) Cc1nnc(SCC(=O)Nc2cc(C(F)(F)F)ccc2Cl)n1C
    -0.5, ., -2.8, ., .
33) COc1ccccc1NC(=O)CSc1nnc(Cn2nnc(-c3ccccc3)n2)n1-c1ccccc1
    4.2, -10.7, -4.0, -6.8%, 14.7
34) O=S(=O)(NCc1ccccc1)NCc1cccc(C(F)(F)F)c1
    -2.3, ., 2.7, -1.3%, 7.2
35) CCOc1cc(N2CCOCC2)c(OCC)cc1NC(=O)COC(=O)c1cc(C)oc1C
    -1.7, -45.1, 94.8, 11.5%, -16.2
36) O=[N+]([O-])c1ccc(O)c(C2=NNC(c3ccccc3F)C2)c1 (centres undefined)
    0.6, ., -1.9, -3.7%, .
37) CC(=O)c1cccc(NC(=S)NC(=O)c2cccc(Cl)c2)c1
    7.7, -28.7, 3.6, 7.8%, 5.9
38) Cc1ccccc1NC(=S)N(CCCN1CCOCC1)Cc1cccnc1
    -0.8, ., -3.5, 3.8%, 9.0
39) Clc1ccc(Cl)c(OCCCCNCc2ccccc2)c1
    5.2, -5.5, -3.7, 11.2%, -36.7
40) CCOC(=O)C1CCCN(CCC(=O)Nc2ccc(C)c(C)c2)C1 (centres undefined)
    -0.9, ., 4.3, 5.6%, 14.1
41) NC(=O)COC(=O)c1ccccc1OCc1ccccc1Cl
    -0.1, ., -5.4, -4.3%, 7.7
42) O=C(N/N=C/c1ccccc1[N+](=O)[O-])C(=O)N1CCCC1
    -0.2, ., -0.7, -15.0%, 0.7
43) CCn1c(CN2c3ccccc3Sc3ccccc32)n[nH]c1=S
    1.6, ., -6.9, ., .
44) CC[C@H]1CC2CN3CCc4c([nH]c5c([C@H]6C[C@H]7[C@H](CC)CN(C)[C@@H](Cc8c6[nH]c6ccccc86)[C@H]7C(=O)OC)c(OC)ccc45)C(C(=O)OC)(C2)C13
    ., ., 84.6, 5.85µM*, .
45) O=C(N/N=C/C=C\c1ccco1)c1ccccn1
    0.7, ., 96.4, ., .

The closing 3 records of the part before come first, to join the parts:
The line under a structure holds: RecA intein inh, YopH inh, Mtb betalactam, Mtb H37Rv, Arbovirus inh
43) CCn1c(CN2c3ccccc3Sc3ccccc32)n[nH]c1=S
    1.6, ., -6.9, ., .
44) CC[C@H]1CC2CN3CCc4c([nH]c5c([C@H]6C[C@H]7[C@H](CC)CN(C)[C@@H](Cc8c6[nH]c6ccccc86)[C@H]7C(=O)OC)c(OC)ccc45)C(C(=O)OC)(C2)C13
    ., ., 84.6, 5.85µM*, .
45) O=C(N/N=C/C=C\c1ccco1)c1ccccn1
    0.7, ., 96.4, ., .
46) COc1cccc(-c2ccc(NC(=O)C3CCCN(Cc4cnn(C(C)C)c4)C3)cc2)c1 (centres undefined)
    4.4, ., 79.2, ., .
47) O=C1CC2(CCN(C(=O)C(=O)c3c[nH]c4ccccc34)CC2)Oc2ccccc21
    -0.2, ., -0.2, ., .
48) COc1ccc(-c2nc(C#N)c(N3CCN(c4cccc(Cl)c4)CC3)o2)cc1OC
    -1.7, ., 0.6, -4.0%, .
49) COc1ccc(CC(=O)N/N=C(\C)CC(=O)NCc2ccco2)cc1OC
    ., ., -12.0, -4.7%, .
50) CC1=NN(C(=O)c2ccc(Br)cc2)C(O)(C(F)(F)OC(F)(F)F)C1 (centres undefined)
    10.6, -42.3, 93.0, ., -6.0
51) O=C(COC(=O)c1ccccc1Cc1ccccc1)NC1CCS(=O)(=O)C1 (centres undefined)
    2.3, ., 2.7, ., .
52) CCCCCn1c(=O)[nH]c2cc(C(=O)NCCc3ccc(OC)c(OC)c3)ccc2c1=O
    -0.6, -2.0, ?, -5.5%, -0.4
53) CC1(C)N=C(c2ccc(Cl)cc2Cl)C(=O)N1
    -2.1, -27.2, -8.3, -8.8%, -2.9
54) COc1ccc(NC2CCCN(C(=O)CN3CCOC3=O)C2)cc1 (centres undefined)
    -2.1, ., 3.0, ., .
55) CC(=O)NC(c1ccco1)c1ccc2cccnc2c1O (centres undefined)
    -16.0, -63.4, 78.3, 0.1%, -23.8
56) COc1ccc2cc(CCl)c(Cl)nc2c1
    3.3, ., 5.2, 1.1%, -7.1
57) CCN(CC)C(=O)C1CCCN(C/C=C/c2ccccc2[N+](=O)[O-])C1 (centres undefined)
    -2.2, ., 2.7, ., .
58) Cc1nc2c(oc3ccccc32)c(=O)o1
    -0.1, 9.4, 11.7, ., 9.0
59) Cc1csc(NC(=O)CSc2nncc(=O)n2N)n1
    0.0, ., -0.1, 9.6%, 5.7
60) COC(=O)c1sc(N)c(C(=O)OC)c1COC(=O)CCNS(=O)(=O)c1ccc(C)cc1
    1.4, -48.2, 0.7, -0.8%, -1.0
61) CN(C)CCOc1ncnc2c1oc1ccccc12
    -0.1, -3.9, -10.5, -7.0%, -2.2
62) Cc1ccc(NC(=O)CN2C(=O)N/C(=C/c3cccn3-c3ccc(C(=O)O)cc3)C2=O)cc1
    ., 14.4, 5.1, -0.5%, 9.7
63) C[C@H](Nc1ncnc2sc3c(c12)CCC3)C(=O)O
    -2.1, -6.3, -15.6, ., 0.5
64) CCOC(=O)c1[nH]c(C)c(C(=O)Nc2ccc3c(c2)OCCO3)c1C
    0.9, -22.4, -2.1, -1.2%, -6.1
65) CC(C)CNC(=O)c1ccc(Cl)c(Cl)c1
    5.3, -21.9, -1.5, -9.1%, -5.2
66) COC1OC(COC(=O)CNC(=O)OC(C)(C)C)C(O)C(O)C1O (centres undefined)
    -4.2, -23.1, 2.4, -1.1%, 1.5
67) CN(C)/C=C(\C(=O)c1ccccc1)c1nnnn1-c1ccc(F)cc1
    1.6, ., -4.3, 0.5%, .
68) Cc1ccc(-n2c(C)nc3c(cnn3-c3ccc(F)cc3)c2=O)cc1
    -3.6, -35.2, 4.5, ., 14.4
69) CCOC(=O)N1CCC(N(CCOC)C(=O)Nc2ccc(CC)cc2)CC1
    -1.3, -23.9, 4.8, -4.4%, -4.8
70) O=C(CNC1CC1)Nc1cc(C(F)(F)F)ccc1Cl
    -2.3, ., 4.7, -4.7%, .
71) C#CC[N+]1(CC#Cc2cccc(C)c2)CCCCC1
    1.2, ., 5.3, 3.7%, -6.8
72) Cc1ccc(S(=O)(=O)N(CC(=O)N2CCc3ccccc3C2)c2ccc(Cl)c(Cl)c2)cc1
    2.4, -15.8, 4.0, 10.2%, -6.3
73) COC(=O)c1ccccc1NC(=O)c1noc2c1CCCC2
    -1.1, -5.0, 14.6, 1.7%, 10.4
74) O=C(CN1C(=O)COc2ccc(S(=O)(=O)N3CCCCC3)cc21)NCc1ccccc1Cl
    0.0, ., 2.4, ., .
75) CC1CCc2nc(/C(C#N)=C/c3cccnc3)sc2C1 (centres undefined)
    -9.4, ., 13.5, 7.8%, -9.4

Compounds from the list above containing a COOH group (4):
The line under a structure holds: RecA intein inh, YopH inh, Mtb betalactam, Mtb H37Rv, Arbovirus inh
12) CCCCC(Sc1nc(N)c(NC(=O)c2ccc(OC)cc2)c(=O)[nH]1)C(=O)O (centres undefined)
    -2.0, ., -9.9, -2.8%, 7.1
14) COc1ccc(N2CC(C(=O)O)CC2=O)cc1 (centres undefined)
    -1.5, -9.2, -1.9, -4.3%, 1.4
62) Cc1ccc(NC(=O)CN2C(=O)N/C(=C/c3cccn3-c3ccc(C(=O)O)cc3)C2=O)cc1
    ., 14.4, 5.1, -0.5%, 9.7
63) C[C@H](Nc1ncnc2sc3c(c12)CCC3)C(=O)O
    -2.1, -6.3, -15.6, ., 0.5

The list continues.
The line under a structure holds: RecA intein inh, YopH inh, Mtb betalactam, Mtb H37Rv, Arbovirus inh
76) CCC1CCCCN1CCCNC(=O)CN1C(=O)CSc2ccc(S(=O)(=O)N3CCC(C)CC3)cc21 (centres undefined)
    3.2, ., -7.8, ., .
77) Cc1ccc(CNC(=O)C(=O)NCC2OCCN2S(=O)(=O)c2ccc(Cl)cc2)cc1 (centres undefined)
    -0.9, ., 6.9, ., .
78) COCCCn1cnc2c(c1=O)c1nc3ccccc3nc1n2-c1ccccc1
    -4.0, -48.6, 59.5, -0.5%, -5.8
79) O=c1oc2ccccc2c(Cl)c1CN1CCCCC1
    21.3, ., -0.8, 5.5%, 1.7

Individual results from above.
RecA intein inh, #76 stands at 3.2
Mtb H37Rv, #20 stands at 10.2%
Arbovirus inh, #1 stands at -1.2
